Six1-Eya2 blk – inhibitors of human Six1/Eya2 interaction. AlphaScreen GST-Six1/His-Eya2 binding, biochemical; active compounds read low; control for the full effect not named in the record. activity change, % (no concentration beside the values). actives 0.56% (n = 360,000); in the data active = activity change below about -65%; inconclusive = about -30% to -65%; inactive = above about -30%; also: % is scaled to controls: 0 for no effect and ±100 for the full control effect
Target sequence (O00167 whole entry, looked up): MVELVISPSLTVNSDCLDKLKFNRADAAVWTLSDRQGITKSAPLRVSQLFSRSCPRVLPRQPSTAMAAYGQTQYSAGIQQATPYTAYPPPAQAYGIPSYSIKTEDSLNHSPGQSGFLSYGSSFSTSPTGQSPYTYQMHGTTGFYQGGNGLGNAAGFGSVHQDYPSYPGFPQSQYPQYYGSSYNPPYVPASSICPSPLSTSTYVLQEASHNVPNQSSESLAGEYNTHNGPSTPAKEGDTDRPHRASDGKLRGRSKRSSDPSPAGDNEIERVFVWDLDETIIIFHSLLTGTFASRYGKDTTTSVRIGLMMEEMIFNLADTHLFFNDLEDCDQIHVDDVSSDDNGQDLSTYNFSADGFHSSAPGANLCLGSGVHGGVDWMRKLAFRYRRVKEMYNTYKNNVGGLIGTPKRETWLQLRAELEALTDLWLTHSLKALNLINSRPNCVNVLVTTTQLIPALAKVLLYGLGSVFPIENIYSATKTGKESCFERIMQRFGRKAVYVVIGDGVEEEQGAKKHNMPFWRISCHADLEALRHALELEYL
Target sequence (Q15475 whole entry, looked up): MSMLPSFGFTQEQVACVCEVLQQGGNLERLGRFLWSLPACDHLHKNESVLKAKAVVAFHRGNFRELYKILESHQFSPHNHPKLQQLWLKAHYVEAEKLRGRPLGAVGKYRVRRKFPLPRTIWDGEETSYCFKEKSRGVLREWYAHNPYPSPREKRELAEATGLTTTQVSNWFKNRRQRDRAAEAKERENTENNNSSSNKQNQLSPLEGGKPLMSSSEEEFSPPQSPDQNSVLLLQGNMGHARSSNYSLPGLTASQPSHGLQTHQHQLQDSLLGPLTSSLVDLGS
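Homogeneous AlphaScreen proximity assay pairing GST-Six1 with His-tagged Eya2 (added as 5X mix: 250 nM and 500 nM) in 50 mM Tris pH 8.0, 300 mM NaCl, 1 mM TCEP. Glutathione donor and nickel acceptor beads; 1 h, 37 °C, dark.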
TRPML1 inh – inhibitors of human TRPML1 channel | Q9GZU1 | TRPML1-inducible cells, Ca2+ dye fluorescence, FDSS; active compounds read low; inhibition of EC80 agonist-evoked calcium signal | activity change, negative = inhibition, % (test concentration not listed) | actives 0.02% (n = 390,000) | AID 624415; in the data active means activity change below about -50%; inconclusive means about -30% to -50%; inactive means above about -30%;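 also: stimulus is agonist 54-4 at its EC80 concentration; % is scaled to controls: 0 for no effect and ±100 for the full control effect; compound concentration not given in the record; the text of the record puts the active cut at -80%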
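Tet-induced TRPML1-DL cells loaded with Ca8 no-wash calcium dye were read kinetically on FDSS. Compound addition was followed by EC80 agonist 54-4 (4 uM final); inhibition was read over 110 s.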
D2 PAM – potentiates the human D2 dopamine receptor allosterically | P14416 | DiscoveRx D2 beta-arrestin cells, luminescence, 90 min; 100% = 57 uM dopamine signal | potentiation, % (test concentration not listed) | actives 0.23% (n = 360,000); active = potentiation of 50% or more; inconclusive = 30% to 50%; inactive = 30% or less;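 also: compound concentration not given in the record; tested on top of an EC20 dose of dopamine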
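PathHunter beta-arrestin assay in DiscoveRx D2 cells. Compounds were added with an EC20 of dopamine (50 nM final) for 90 min at 37 deg C. Luminescence was read 1 h after detection reagent, with 57 uM dopamine as the EC100 control.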
PINK1 expr mod – PINK1 expression modulation; PINK1 immunofluorescence, high-content cytometry, 24 h; Potency, µM (doses to about 76.6 µM), for the others: at the highest dose activation (PINK1 increase), hits mostly activators; actives 0.2% (n = 410,000); AID 624263; active = well fitted activation curve with a large enough effect; inconclusive = small, poorly fitted or top-dose-only effect; inactive = flat fitted curve, though single readings scatter; cell line not stated here;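 also: potency is read from the fitted curve at half-maximal effect; % of control where 0% means no effect; nearly all actives have a fitted effect of over 65% in size; a mitochondrial uncoupler was the plate control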
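Stable cell line, 250 cells/well, 12 h attachment; compounds pinned at 5 concentrations, 24 h; CCCP control. Fixed with nuclear dye, primary antibodies 12 h at 10 degrees C, secondary plus cell stain; laser-scanning cytometer read.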
D2 agonist – human D2 receptor agonism in beta-arrestin assay; AID 624465; activation, % (concentration not given with the values); DiscoveRx PathHunter D2 beta-arrestin, luminescence, 90 min; 100% = 57 uM dopamine signal; actives 0.084% (n = 360,000); P14416; in the data active = activation above about 40%; inconclusive = about 15% to 40%; inactive = below about 15%; also: compound concentration not given in the record; the text of the record calls up to 30% inactive
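Agonist mode: compounds alone added to overnight-plated D2 PathHunter cells for 90 min at 37 C, with 57 uM final dopamine (EC100) defining full response. Beta-arrestin recruitment detected by chemiluminescent reagent, read after 1 h at ambient temperature.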
TRPML1 agonist – activates the human TRPML1 channel | Q9GZU1 | TRPML1-expressing cells, Ca2+ dye fluorescence, FDSS; host cell line not named in the record; reference of the full effect not given here | activation, % (no concentration beside the values) | actives 0.12% (n = 410,000) | AID 624414; in the data active = activation above about 50%; inconclusive = about 30% to 50%; inactive = below about 30%; also: 0% is about no effect; the text of the record puts the active cut at 80%
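In this qHTS format, compounds were pin-transferred onto Ca8-dye-loaded TRPML1-DL cells induced with Tet overnight, and intracellular Ca2+ fluorescence was recorded kinetically for 110 s after a 10 s baseline. A subsequent 4uM final 54-4 (EC80) addition followed by a second 110 s read served as the antagonist phase.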
Numbers without * were called inactive; ? = inconclusive; . = no result given; & = joins results of further samples; [ ] = dose if it differs, or a comment.

SMILES	Six1-Eya2 blk	TRPML1 inh	D2 PAM	PINK1 expr mod	D2 agonist	TRPML1 agonist
CCOc1ccc(N2CC(NC(=O)c3cccc4ccccc34)CC2=O)cc1 (stereo unspecified)	3	4	-2	12%	0.6	-0.1
O=C(OCc1ccccc1)N1CCC2CC1c1cc(N3CCN(S(=O)(=O)c4cccc(C(F)(F)F)c4)CC3)ccc12 (stereo unspecified)	-6	-4	-2	0.3%	-11	-0.2
CCOC(=O)C1CCCN(C(=O)CCNS(=O)(=O)c2ccc(Br)cc2)C1 (stereo unspecified)	2	-19	-1	-0.2%	-2.4	0.9
OC(c1ccc(F)cc1)c1ncc(-c2ccccc2Cl)[nH]1 (stereo unspecified)	-4	7	-9	-0.6%	-6.3	-0.5
O=C(CCCN1C(=O)c2ccccc2C1=O)NCc1ccco1	4	-7	-3	-0.1%	-0.4	-0.4
COc1ccc(Br)c(C(=O)NC2CCCC2)c1	4	-2	-7	-0.2%	1.0	-0.5
Cc1ccc(CNC(=O)Cn2c(=O)n(-c3ccccc3)c(=O)c3sccc32)cc1	11	-7	4	-2.6%	-0.3	2.6
CCOC(=O)[C@@H]1[C@H]2COc3cc(OC)ccc3[C@H]2N2C(=O)N(c3ccc(C)cc3)C(=O)[C@@]12C	-11	-4	-10	1.6%	-2.2	0.1

SMILES	Six1-Eya2 blk	TRPML1 inh	D2 PAM	PINK1 expr mod	D2 agonist	TRPML1 agonist
CC(=O)OCC(=O)C12OC(C)(C)OC1CC1C3CC=C4CC(O)CCC4(C)C3CCC12C (stereo unspecified)	-1	20	-9	12%	0.4	2.5
O=C(C[C@@H]1C[C@@H]2c3cc(NS(=O)(=O)c4ccc(F)cc4)ccc3O[C@@H]2[C@H](CO)O1)N1CCc2ccccc2C1	-2	15	10	5.7%	-11	-0.3
COc1cc(/C=C/C(=O)OCC(=O)N2CCc3ccccc32)cc(OC)c1OC	71	-18	-12	2.3%	-2.0	0.4
COc1ccc(-c2cc(C(=O)N(C)CCc3ccc(OC)c(OC)c3)c3ccccc3n2)cc1	-7	3	1	0.0%	-4.8	1.8
CCCC(=O)NC(=S)Nc1ccc(C(C)=O)cc1	1	61	4	-0.5%	-2.7	0.0
COc1ccc(S(=O)(=O)N2CCN(C(=O)c3cc(-c4ccc(Br)cc4)n[nH]3)CC2)cc1OC	-4	-6&-14	-2	2.1%&-1.2%	5.2	-1.2&4.1
C=CC[C@H](CC(=O)N(CCO)Cc1ccccc1)C(=O)N[C@H](COC(=O)[C@H](CC=C)CC(=O)OC(C)(C)C)Cc1ccccc1	-11	35	0	5.9%	-5.0	0.8
COc1ccc(NC(=O)c2cc(-c3cc(F)ccc3OC)n[nH]2)c(C)c1	-21	.	-4	-0.5%	-1.7	-1.0

SMILES	Six1-Eya2 blk	TRPML1 inh	D2 PAM	PINK1 expr mod	D2 agonist	TRPML1 agonist
CCCCN(C(=O)c1ccc2c(c1)NC(=O)CS2)c1ccccc1	-5	10	1	1.5%	0.2	4.3
CCOC(=O)n1c(=O)oc2cc(S(=O)(=O)N3CCCCC3)ccc21	-1	6	3	1.2%[38.3 µM]	-1.5	0.4
O=C(c1cccc(Cl)c1)N1CCC(c2nc3c(nnn3Cc3ccc(F)cc3F)c(=O)[nH]2)CC1	.	10	.	1.8%	.	0.5
O=C(NCc1cccc(Cl)c1)c1cccc(S(=O)(=O)N2CCCC2)c1	1	-3	-12	0.6%	-1.4	1.3
CC(=O)c1ccc(NC(=O)C2C3C=CC(C3=C(c3ccccc3)c3ccccc3)C2C(=O)O)cc1 (stereo unspecified)	-2	-11	2	-1.2%	-1.3	4.0
COc1ccccc1NS(=O)(=O)c1cc(C(=O)NCC2CCCO2)ccc1C (stereo unspecified)	2	66	0	-7.1%	-3.7	-0.1
N#C/C(=C1/CCCN1)c1ccccn1	0	-6	-10	4.4%[38.3 µM]	-1.0	3.2
CC1(C)CC(=O)C(C2C3=C(CC(C)(C)CC3=O)Oc3ccccc32)=C(O)C1 (stereo unspecified)	-5	-1	-11	-2.3%	-2.4	-1.2

SMILES	Six1-Eya2 blk	TRPML1 inh	D2 PAM	PINK1 expr mod	D2 agonist	TRPML1 agonist
Cc1ccc(S(=O)(=O)N(Cc2ccccc2)C(C)C)cc1	30	31	-1	1.0%	-0.7	1.3
CCN(CC)S(=O)(=O)c1ccc(C)c(NC(=O)COc2ccc3c(C)cc(=O)oc3c2)c1	-3	-8	-7	7.4%	-0.8	0.7
O=C(NCCc1ccccc1Cl)C1CCC(=O)N(C2CCCCCC2)C1 (stereo unspecified)	7	18	-15	0.5%	0.2	0.2
NC(=O)c1ccc(NC(=O)C2COc3ccccc3O2)cc1 (stereo unspecified)	0	0	4	-0.3%	1.5	-0.1
O=C(Nc1ccc2c(c1)N(S(=O)(=O)c1cccs1)CCC2)c1c(F)cccc1Cl	-4	31	-1	0.3%	-2.4	0.5
Cc1cc(C)n(CC(C)(O)c2ccccc2)n1 (stereo unspecified)	10	20	-10	0.7%	-4.0	0.1
NC(=O)c1c(/N=C/c2cccnc2)sc2c1CCCC2	?	0	-6	2.8%	-11	-0.3
CCN(CC)c1ccc(O)c(C=Nc2ccc(C)c(C)c2)c1	7	-2	-4	0.6%	3.3	-0.9

SMILES	Six1-Eya2 blk	TRPML1 inh	D2 PAM	PINK1 expr mod	D2 agonist	TRPML1 agonist
NC(=O)CC(NC(=O)Cc1cccc2ccccc12)c1ccc(N2CCCCCC2)c([N+](=O)[O-])c1 (stereo unspecified)	-12	-2	-16	2.2%	-6.4	-0.8
O=C(O)C1C2CCC(O2)C1C(=O)Nc1ccc(Cl)cc1F (stereo unspecified)	0	-1	-3	4.8%	-1.4	-0.1
O=C(CN1C(=O)c2ccccc2S1(=O)=O)NC(Nc1ccccc1F)C(Cl)(Cl)Cl (stereo unspecified)	-1	17	-8	-1.9%	5.5	4.1
CCc1ccccc1N(C(=O)c1ccco1)C(C(=O)NC1CCCC1)c1cccnc1 (stereo unspecified)	2	-6	1	-0.6%	1.1	0.4
O=C(CCn1ccc([N+](=O)[O-])n1)Nc1nccs1	6	16	-6	2.4%	0.0	-0.4
O=C(/C=C/Nc1ccccc1)c1ccc(Oc2ncccn2)cc1	1	-7	-13	2.3%	-1.4	0.0
COc1cc(OC)c(NS(=O)(=O)c2c(C)[nH]c(=O)[nH]c2=O)cc1Cl	-1	.	-1	0.3%	-5.2	.
C[C@@H](NS(=O)(=O)c1cc(Cl)ccc1F)[C@H](O)c1ccccc1	3	7	-4	-0.1%	-7.5	-0.8

SMILES	Six1-Eya2 blk	TRPML1 inh	D2 PAM	PINK1 expr mod	D2 agonist	TRPML1 agonist
Cc1ccc(-c2nc(S(=O)(=O)c3ccc(C)cc3)c(SCC(=O)NCC3CCCO3)o2)cc1 (stereo unspecified)	-3	0	1	2.4%	3.9	-0.8
Cc1ccc(CC(=O)O/N=C(\N)c2ccncc2)cc1	24	9	-20	-0.4%	?	1.1
O=C(Nc1cc(Cl)cc(Cl)c1)C(c1ccccc1)N1CCCCC1 (stereo unspecified)	7	15	-8	?	1.3	4.5
CCc1cccc(NC(=O)CSc2nc3ccsc3c(=O)n2CC)c1	.	36	.	0.0%	.	0.5
Cc1[nH][nH]c(=O)c1C(c1ccc(-c2ccc(Cl)c(C(=O)O)c2)o1)c1c(C)[nH][nH]c1=O	?	13	-7	-2.2%	-3.1	0.4
Cc1ccc(O)c(NC(=O)C2CC(c3cccc(Br)c3)=NO2)c1 (stereo unspecified)	2	-4	7	9.7%	2.4	0.6
CCN1C(=O)[C@H]2[C@@H](c3ccc(C)cc3)N3C(=O)N(c4cccc(Cl)c4)C(=O)[C@@]3(CC)[C@H]2C1=O	1	-10	-12	-1.7%	-2.2	-0.5
CCOc1ccccc1NC(=O)c1ccc2c(c1)C(=O)N(CC1CCCO1)C2=O (stereo unspecified)	3	-8	-1	0.4%	2.3	0.4

Brought forward from above: three entries, followed by the next part.
SMILES	Six1-Eya2 blk	TRPML1 inh	D2 PAM	PINK1 expr mod	D2 agonist	TRPML1 agonist
Cc1ccc(O)c(NC(=O)C2CC(c3cccc(Br)c3)=NO2)c1 (stereo unspecified)	2	-4	7	9.7%	2.4	0.6
CCN1C(=O)[C@H]2[C@@H](c3ccc(C)cc3)N3C(=O)N(c4cccc(Cl)c4)C(=O)[C@@]3(CC)[C@H]2C1=O	1	-10	-12	-1.7%	-2.2	-0.5
CCOc1ccccc1NC(=O)c1ccc2c(c1)C(=O)N(CC1CCCO1)C2=O (stereo unspecified)	3	-8	-1	0.4%	2.3	0.4
CNc1nc(C)cc(C)c1S(=O)(=O)c1ccc(Cl)cc1	10	1	-21	0.5%	10	1.4
COc1ccc(-c2cc(-c3n[nH]c(=S)n3-c3cc(OC)ccc3OC)[nH]n2)cc1	-19	12	-15	-1.2%	-1.7	0.1
COc1ccc(Cl)cc1S(=O)(=O)Nc1ncn[nH]1	19	17	1	-1.1%	3.8	0.1
COc1cc(C(=O)NCc2cccc3ccccc23)cc(Cl)c1OC	1	7	-5	-0.5%	-0.9	2.2
CCOC(=O)c1c(NC(=O)COC(=O)c2ncc(Cl)c(Cl)c2Cl)sc(C(=O)N(C)C)c1C	-9	21	4	4.8%	0.4	3.5
O=C(NCC1CCCO1)c1cc2c(s1)CS(=O)(=O)C2 (stereo unspecified)	3	9	1	-4.9%[38.3 µM]	1.9	1.0
C/C(=N/NC(=O)c1cn(-c2cccc(C)n2)cn1)c1ccc(C)cc1	5	0	-14	-0.7%	-1.7	1.5
NC(=O)CSc1nc2c(sc3ccccc32)c(=O)n1CCCN1CCOCC1	-3	-4	-10	-3.0%	-4.8	-0.4

SMILES	Six1-Eya2 blk	TRPML1 inh	D2 PAM	PINK1 expr mod	D2 agonist	TRPML1 agonist
COc1ccc(S(=O)(=O)N(C)C[C@H]2OCCCC[C@@H](C)Oc3ccc(NC(=O)CCC(F)(F)F)cc3C(=O)N([C@H](C)CO)C[C@@H]2C)cc1	0	11	-6	-1.0%	-3.5	-0.5
CCCC12CN3CC(C)(CN(C1)C3c1cccs1)C2=O (stereo unspecified)	-8	-9	-2	4.1%	-8.4	0.0
COc1ccc(-n2cnnc2SCC(=O)N2CCN(c3ccccc3)CC2)cc1	?	18	-9	-1.6%	-1.0	-0.3
CCN(C(=O)COC(=O)/C=C/c1cccc([N+](=O)[O-])c1)c1ccccc1	-9	7	-12	2.3%	-6.3	-0.7
CCOC(=O)C1CCCN(S(=O)(=O)c2ccc(S(=O)(=O)N(CC)CC)cc2)C1 (stereo unspecified)	4	-14	-1	0.0%	-3.7	1.9
Cc1ccc2oc(C(=O)N(C)CCC(O)c3ccccc3)c(C)c2c1 (stereo unspecified)	5	54	-18	1.5%	-0.3	-1.3
O=C(COC(=O)COc1ccccc1F)NCc1ccco1	4	16	3	0.6%	-1.3	0.4
CC(C)c1ccc2oc(-c3cc(NC(=O)c4cccs4)ccc3Cl)nc2c1	.	7	.	3.2%	.	1.5
COc1cc(NC(=S)N2CCN(S(=O)(=O)c3ccccc3)CC2)cc(OC)c1	-7	-1	-6	-0.8%	-4.5	0.1

High-throughput results as filed in PubChem.
